# Assay outcomes: PubChem, National Center for Advancing Translational Sciences (NCATS)
# CtBP-E1A blk: CtBP/E1A binding inhibition; 340,000 tested, 0.49% active; AlphaScreen GST-E1A/His-CtBP binding, 1536-well; stronger effect = lower value; control for the full effect not named in the record; activity change, % (no concentration beside the values); AID 651724; in the data active means activity change below about -65%; inconclusive means about -30% to -65%; inactive means above about -30%; further: on the % scale 0 is the no-effect control and ±100 the full control effect; compound concentration not given in the record
#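 Homogeneous bead-based format: GST-tagged E1A captured on glutathione donor beads, His-tagged CtBP on nickel acceptor beads; compounds precede bead addition by 2 h at 37 °C.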
# Six1-Eya2 blk: Six1/Eya2 interaction inhibition. AlphaScreen GST-Six1/His-Eya2 binding, biochemical; stronger effect = lower value; control for the full effect not named in the record. activity change, % (test concentration not listed). 360,000 tested, 0.56% active; in the data active = activity change below about -65%; inconclusive = about -30% to -65%; inactive = above about -30%; further: on the % scale 0 is the no-effect control and ±100 the full control effect; compound concentration not given in the record
#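 GST-Six1 + His-Eya2 (5X stock: 250/500 nM); Tris pH 8.0, 300 mM NaCl, 0.05% BSA, 0.02% Tween 20; GSH donor/Ni acceptor beads; 1 h 37 °C dark; AlphaScreen readout.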
# TRPML1 ag: human mucolipin-1 channel agonism; TRPML1-expressing cells, Ca2+ dye fluorescence, FDSS; host cell line not named in the record; reference of the full effect not given here; activation, % (test concentration not listed); 410,000 tested, 0.12% active; in the data active = activation above about 50%; inconclusive = about 30% to 50%; inactive = below about 30%; further: 0% is about no effect; the text of the record puts the active cut at 80%
# Target sequence (Q9GZU1 whole entry, looked up): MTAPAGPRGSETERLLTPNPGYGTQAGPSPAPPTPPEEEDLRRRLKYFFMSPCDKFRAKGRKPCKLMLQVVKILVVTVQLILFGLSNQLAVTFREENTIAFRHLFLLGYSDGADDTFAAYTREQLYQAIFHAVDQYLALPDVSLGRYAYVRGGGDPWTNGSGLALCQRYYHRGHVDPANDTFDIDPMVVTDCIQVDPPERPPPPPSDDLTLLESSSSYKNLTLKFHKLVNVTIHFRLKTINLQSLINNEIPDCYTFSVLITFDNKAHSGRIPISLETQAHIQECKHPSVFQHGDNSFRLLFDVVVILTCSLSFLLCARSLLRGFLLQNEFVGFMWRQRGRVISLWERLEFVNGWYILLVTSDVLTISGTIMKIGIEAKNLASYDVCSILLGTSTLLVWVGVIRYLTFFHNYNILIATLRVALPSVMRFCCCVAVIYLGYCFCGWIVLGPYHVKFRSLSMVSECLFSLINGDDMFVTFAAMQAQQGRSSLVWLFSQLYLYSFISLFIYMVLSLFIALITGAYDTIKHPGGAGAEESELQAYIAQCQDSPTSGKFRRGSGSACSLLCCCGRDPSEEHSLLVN
#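 Kinetic FDSS Ca2+ read in Tet-induced TRPML1-DL cells (ABD Ca8 dye plus quencher, 45-90 min RT loading): baseline, then compound, then 110 s agonist window; EC80 agonist 54-4 at 4uM final added afterwards for a 110 s antagonist window.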
# D2 agonist: agonists of human D2 dopamine receptor (beta-arrestin). DiscoveRx PathHunter D2 beta-arrestin, luminescence, 90 min; 100% = 57 uM dopamine signal. activation, % (concentration not given with the values). 360,000 tested, 0.084% active. AID 624465; in the data active = activation above about 40%; inconclusive = about 15% to 40%; inactive = below about 15%; further: compound concentration not given in the record; the text of the record calls up to 30% inactive
# Target sequence (P14416 whole entry, looked up): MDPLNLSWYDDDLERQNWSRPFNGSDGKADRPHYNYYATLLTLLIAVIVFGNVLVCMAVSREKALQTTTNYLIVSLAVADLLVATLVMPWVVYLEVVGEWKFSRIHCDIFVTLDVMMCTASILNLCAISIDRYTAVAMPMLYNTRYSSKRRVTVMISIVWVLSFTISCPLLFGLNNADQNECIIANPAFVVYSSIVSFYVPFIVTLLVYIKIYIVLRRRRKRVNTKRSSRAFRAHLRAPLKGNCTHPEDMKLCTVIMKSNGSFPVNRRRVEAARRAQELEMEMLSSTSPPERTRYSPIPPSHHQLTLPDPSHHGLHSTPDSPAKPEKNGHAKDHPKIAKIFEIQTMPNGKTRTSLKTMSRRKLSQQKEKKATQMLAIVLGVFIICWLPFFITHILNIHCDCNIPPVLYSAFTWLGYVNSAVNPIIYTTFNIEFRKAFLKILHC
#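 Agonist mode: compounds alone added to overnight-plated D2 PathHunter cells for 90 min at 37 C, with 57 uM final dopamine (EC100) defining full response. Beta-arrestin recruitment detected by chemiluminescent reagent, read after 1 h at ambient temperature.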
# D2 PAM: human D2 receptor positive allosteric modulation; P14416; DiscoveRx D2 beta-arrestin cells, luminescence, 90 min; 100% = 57 uM dopamine signal; potentiation, % (test concentration not listed); 360,000 tested, 0.23% active; active = potentiation of 50% or more; inconclusive = 30% to 50%; inactive = 30% or less;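 further: compound concentration not given in the record; tested on top of an EC20 dose of dopamine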
#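 D2 cells co-treated with compound plus 50 nM dopamine (EC20) for 90 min at 37 deg C to detect potentiation. Beta-arrestin recruitment was read as enzyme-fragment luminescence after 1 h at ambient temperature. Full response was set by 57 uM dopamine.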
# PINK1 expr mod: modulators of PINK1 expression. AID 624263. PINK1 immunofluorescence, high-content cytometry, 24 h. Potency, µM (top dose mostly 76.6 µM), inactives show at the highest dose activation (PINK1 increase), hits mostly activators. 410,000 tested, 0.2% active; active = well fitted activation curve with a large enough effect; inconclusive = small, poorly fitted or top-dose-only effect; inactive = flat fitted curve, though single readings scatter; cell line not stated here;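 further: potency means the concentration at half of the fitted maximal effect; % of control where 0% means no effect; nearly all actives have a fitted effect of over 65% in size; a mitochondrial uncoupler was the plate control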
#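 Compound titrations (5 concentrations, 24 h) on a stable cell line; DMSO and CCCP controls. Endpoint: fixed-cell PINK1 immunofluorescence with mitochondrial, cell and nuclear markers, scanned by microplate cytometer.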
# * = called active by the depositor; ? = inconclusive; · = no result given; & = joins results of further samples; [ ] = remark or other dose. Rows are unselected; about 1.3% have a hit in one of these screens.
item	Structure	CtBP-E1A blk	Six1-Eya2 blk	TRPML1 ag	D2 agonist	D2 PAM	PINK1 expr mod
1	Cc1ccc(NC(=O)CCC(=O)N/N=C/c2cccs2)cc1C	10	-3	-0.4	0.9	-18	0.9%
2	CCOc1c(Cl)cc(C(=O)Nc2cccc(C(=O)O)c2)cc1Cl	·	3	2.0	4.1	?	-0.4%
3	Cc1ccc(C(=O)Nn2cnnc2)cc1Cl	·	-1	·	0.0	-2	1.1%
4	COc1ccc2c(=O)c(C(=O)O)c(-c3ccc4c(c3)OCO4)n(C)c2c1	5	2	-0.8	-4.6	-5	4.7%
5	C#CCNC(=O)C[C@@H]1C[C@@]2(C(=O)OCC)CCC=C2N(Cc2cccc3ccccc23)C1=O	1	0	-0.5	·	·	0.6%
6	Cc1ccc(S(=O)(=O)Nc2ccc(-c3nc4ccc(C)cc4s3)cc2)cc1	-8	-29	-0.2	12	-10	0.0%
7	COc1ccc(-c2ccc([C@H]3[C@H]4C=CC[C@@H](C)[C@@H]4C(=O)N3Cc3ccccc3)c(F)c2)cc1	0	-12	1.5	-5.5	-14	2.3%
8	O=C(NC1CCN(Cc2ccccc2)CC1)c1ccc(CS(=O)c2ccc(F)cc2)o1 (configuration not stated)	-1	-2	-0.2	-1.9	-30	-0.5%
9	CN(C)c1ccc2c3c(ccc(N(C)C)c13)C(=O)OC2	·	-1	-1.0	-3.6	-21	0.4%
10	CC(=NNC(=O)COc1cccc(C)c1)c1cccnc1	-4	-2	4.3	2.0	-7	-0.4%
11	COc1cccc(C(=O)/C=C/Nc2ccc(NC(C)=O)cc2)c1	3	-1	0.9	-1.0	-12	-1.6%
12	COc1cc(C(=O)Nc2ccc3c(c2)Cc2ccccc2-3)cc(OC)c1OC	·	-2	0.4	-0.4	-7	9.6%
13	Cc1ccc(-c2c(C(=O)c3ccc(Br)cc3)[nH]c(N)c2C(=O)NCc2ccc(Cl)cc2)cc1	0	0	-0.5	·	·	0.8%
14	CC(C)CC1C(=O)N(Cc2cn(CCC3OCCCO3)nn2)CCS(=O)(=O)N1Cc1ccc(-c2ccc(Cl)nc2)cc1 (configuration not stated)	1	-1	-0.6	-4.8	1	-0.3%
15	C/C(=N\Nc1c(Cl)c(Cl)nc(C(=O)O)c1Cl)c1ccc(O)cc1	?	-67*	-0.5	-3.6	-4	0.9%
16	COC(=O)C1=C[C@@H](C(=O)OC)[C@@H]2C3=C(C(=O)[C@@]2(C)NC(=O)c2ccccc2)[C@H](c2ccccc2)[C@@H]2C(=O)NC(=O)[C@@H]2[C@@H]3C1	-1	-2	-0.7&0.2	-2.6	-4	-0.3%
17	Cc1ccc(NC(=O)c2cc(C)nc3ccccc23)c(Br)c1	-14	-20	0.8	3.6	1	2.7%
18	N#CCCN=C(NS(=O)(=O)c1ccccc1)c1ccccc1	2	5	0.1	-5.5	-5	-0.1%
19	O=C(COC(=O)c1ccccc1C(=O)N1CCN(c2ccccc2)CC1)Nc1ccc(F)cc1	-3	-9	-0.2	-3.5	-21	1.8%
20	COc1ccc(-c2cc(=O)n(-c3ccc([N+](=O)[O-])cc3)[nH]2)cc1	-11	?	-0.2	-5.7	-8	?
21	CCn1cc(S(=O)(=O)NCc2ccccc2Br)cn1	-4	-6	0.0	-0.4	4	3.7%
22	CCCCn1c(CCC)nc([N+](=O)[O-])c1Sc1ccc(Cl)cn1	-2	-1	0.4	-2.4	-13	-0.9%
23	CCN1C(=O)[C@H]2[C@@H](c3ccc(C(F)(F)F)cc3)N[C@]3(CCCN(Cc4ccc(F)cc4)C3=O)[C@H]2C1=O	-20	-1	-0.1	-6.3	-2	0.0%
24	COc1ccc(/C=N/N=C2/NC(=O)C(c3ccccc3)S2)c(OC)c1 (configuration not stated)	-7	-7	-0.5	-3.0	15	-1.6%
25	CCN(C(=O)c1ccnn1C)c1ccccc1	9	14	-0.6	-2.9	-8	3.5%
26	CSc1ccccc1OCc1cc(C(=O)N2CCN(c3ncccn3)CC2)no1	1	-12	0.3	0.4	-11	-0.1%
27	COc1ccc(OCC(=O)N2CCN(C(=O)c3cccs3)CC2)cc1	-1	4	3.8	1.3	5	-3.0%
28	CC(=O)NS(=O)(=O)c1ccc(NC(=O)[C@@H]2CCCN2S(=O)(=O)c2ccc(Cl)cc2)cc1	-7	-7	1.5	-2.4	-2	-0.2%
29	CCSC(=O)NC1CCCCC1	-3	0	1.0	0.4	-2	0.0%
30	COc1ccc([N+](=O)[O-])cc1N(CC(O)CN1CCOCC1)S(=O)(=O)c1ccccc1 (configuration not stated)	5	3	-1.9	-6.1	-10	1.6%
31	COc1ccc(C)cc1N(C(=O)c1ccccc1)c1nc2ccccc2s1	4	-3	-0.4	-2.0	-15	3.2%
32	CC(C)C(=O)Nc1nnc(SCC(=O)NC2CC2)s1	-14	7	0.3	-1.7	-2	-2.1%
33	CC(=O)Nc1ccc(NC(=O)COC(=O)C2CCCCC2)cc1	·	1	-1.2	-0.3	5	0.5%
34	COC(=O)CSc1ccc(S(=O)(=O)N2CCOCC2)cc1[N+](=O)[O-]	6	4	-0.1	1.8	10	2.1%
35	COc1ccc(/C=C2\CCCCC2=O)cc1	0	-1	0.7	-4.1	-2	2.0%
36	COc1ccc(CN(C)C(C)C(=O)NC2CCCc3ccccc32)cc1 (configuration not stated)	1	-1	2.0	4.6	-9	4.9%
37	O=C(CNC(=O)Cc1ccccc1)N=Nc1c(O)n(Cc2ccc3c(c2)OCO3)c2ccccc12	-28	?	2.3	1.5	-2	2.7%
38	O=C(Nc1ccccc1N1CCOCC1)C1CCN(S(=O)(=O)c2cccc(C(F)(F)F)c2)CC1	15	2	0.2	6.2	3	1.2%
39	O=C1NC2(CCCCC2)C(=O)N1/N=C/c1ccccc1Br	7	-7	-0.6	-5.6	-2	1.1%
40	Cc1nnc(N2C(=O)c3ccc(Br)cc3C2=O)s1	-4	-7	0.2	-2.8	-4	-1.0%
41	CS(=O)(=O)c1ccccc1COC(=O)Nc1ccc(Cl)cc1	5	3	-0.2	0.5	-25	·
42	CCN1C(=O)/C(=C/c2cccs2)N(C)C1=S	5	-4	0.8	-0.1	-7	0.2%
43	O=C(c1ccccc1F)N1CCC2CC1c1cc(-c3ccc4c(c3)OCO4)ccc12 (configuration not stated)	-12	-13	0.4	-5.8	-10	-0.7%
44	CSc1cccc(NC(=O)CCC(=O)O)c1	0	3	0.0	-6.7	-7	2.0%
45	COc1ccc(S(=O)(=O)N2CCN(C)CC2)cn1	3	4	-0.7	-2.4	3	-0.2%
46	NC(=O)c1ccccc1NC(=O)c1ccc2ccccc2c1	-2	16	-0.3	0.4	-12	3.3%
47	Cc1cccc(C(=O)N2CCc3cc(-c4nc(NC(=O)CN5CCCC5)sc4C)ccc32)c1	-29	-22	1.5	7.8	-2	6.1%
48	CSc1ccc(CN2CCC(C)(Oc3ccccc3C)C2)cc1 (configuration not stated)	1	-5	-0.6	7.4	-16	17%
49	C[C@@H]1CCCCO[C@H](CN(C)C(=O)c2ccccc2)[C@@H](C)CN([C@H](C)CO)C(=O)c2cc(NC(=O)NC3CCCCC3)ccc2O1	7	-1	-0.7	-5.3	-3	0.1%
50	CC(=O)Nc1ccc(NC(=O)CSc2ncnc3sc(C)c(C)c23)cc1	0	-7	0.2	-1.5	-5	8.3%

# From entry 45 as far as 50, as listed above:
item	Structure	CtBP-E1A blk	Six1-Eya2 blk	TRPML1 ag	D2 agonist	D2 PAM	PINK1 expr mod
45	COc1ccc(S(=O)(=O)N2CCN(C)CC2)cn1	3	4	-0.7	-2.4	3	-0.2%
46	NC(=O)c1ccccc1NC(=O)c1ccc2ccccc2c1	-2	16	-0.3	0.4	-12	3.3%
47	Cc1cccc(C(=O)N2CCc3cc(-c4nc(NC(=O)CN5CCCC5)sc4C)ccc32)c1	-29	-22	1.5	7.8	-2	6.1%
48	CSc1ccc(CN2CCC(C)(Oc3ccccc3C)C2)cc1 (configuration not stated)	1	-5	-0.6	7.4	-16	17%
49	C[C@@H]1CCCCO[C@H](CN(C)C(=O)c2ccccc2)[C@@H](C)CN([C@H](C)CO)C(=O)c2cc(NC(=O)NC3CCCCC3)ccc2O1	7	-1	-0.7	-5.3	-3	0.1%
50	CC(=O)Nc1ccc(NC(=O)CSc2ncnc3sc(C)c(C)c23)cc1	0	-7	0.2	-1.5	-5	8.3%

# Exported field by field: part of the list above.
9) CN(C)c1ccc2c3c(ccc(N(C)C)c13)C(=O)OC2
  CtBP-E1A blk: ·; Six1-Eya2 blk: -1; TRPML1 ag: -1.0; D2 agonist: -3.6; D2 PAM: -21; PINK1 expr mod: 0.4%

10) CC(=NNC(=O)COc1cccc(C)c1)c1cccnc1
  CtBP-E1A blk: -4; Six1-Eya2 blk: -2; TRPML1 ag: 4.3; D2 agonist: 2.0; D2 PAM: -7; PINK1 expr mod: -0.4%

# Later entries
item	Structure	CtBP-E1A blk	Six1-Eya2 blk	TRPML1 ag	D2 agonist	D2 PAM	PINK1 expr mod
51	Cc1c(NS(=O)(=O)c2cccc(C(=O)NCc3ccccc3Cl)c2)c(=O)n(-c2ccccc2)n1C	0	1	1.0	-2.6	-8	-0.2%
52	Cc1c(C#N)c2ncnc(-c3ccccc3)c2n1-c1ccccc1	1	7	-0.3	0.3	-6	5.2%
53	Cc1c(Cl)c([N+](=O)[O-])nn1Cc1ccc(C(=O)N/N=C\c2ccccn2)o1	-3	?	-0.4	-2.8	-6	0.0%
54	CCOc1ccccc1OCC(=O)Nc1ccc(S(=O)(=O)Nc2ncccn2)cc1	0	-1	0.3	2.0	5	-1.7%[38.3 µM]
55	Cc1ccc(C(=O)N2CCC3(CC2)NCCc2[nH]cnc23)cc1	·	-3	1.2	1.0	-7	0.0%
56	O=C1CCC(C(=O)Nc2cccc(C(F)(F)F)c2)N1 (configuration not stated)	5	4	2.0	-2.1	4	0.4%[38.3 µM]
57	O=C(/C=C/c1ccc(Br)cc1)c1ccc(NC2=NCCCS2)cc1	-26	-3	1.9	-1.5	-6	-0.6%
58	CC1CCCC(NC(=O)COC(=O)c2cc3ccccc3oc2=O)C1C (configuration not stated)	3	-2	1.0	-5.6	0	0.2%
59	O=C(CSc1nnc(-c2ccncc2)n1CCc1ccccc1)NCc1ccccc1	4	0	4.4	-1.9	-7	-2.2%
60	Cn1c(SCc2ccccc2Cl)nc2ccccc21	28	22	4.6	-3.6	-3	1.5%
61	Cc1ccc(OCC(=O)N(Cc2ccccc2)C2CCS(=O)(=O)C2)c([N+](=O)[O-])n1 (configuration not stated)	3	9	-0.2	-1.9	-20	-3.5%
62	CC1=CC(=O)CC2C1(C)CCC(C)C2(C)CCC(C)CC(=O)O (configuration not stated)	2	7	·	1.6	-18	-0.9%
63	O=C(Nc1ccc(C(=O)N2CCCC2)cc1)c1cc(F)c(F)cc1Cl	10	4	0.3	1.0	6	0.6%
64	O=C(CSc1nc2ccccc2o1)NC(=O)NCc1ccco1	-6	3	1.5	1.1	-1	-1.3%
65	Cn1c(/C(C#N)=C(\O)c2ccc([N+](=O)[O-])s2)nc2ccccc21	7	14	0.0	1.5	3	-1.2%

# Single entries from the list:
# Under Six1-Eya2 blk, entry 62 shows 7
# Under PINK1 expr mod, entry 63 shows 0.6%
# Under PINK1 expr mod, entry 53 shows 0.0%
